Yeast UUG start = modulators of yeast start codon fidelity, primary screen, whole organism, S. cerevisiae, single point, plate reader. S. cerevisiae UUG-firefly luciferase reporter, luminescence/redox ratio. activity score, % at 18.7 µM. 350,000 tested, 0.13% active;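 active = replicate mean at a twofold rise or more, about +100% in these data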;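 note: firefly luciferase made from a UUG start codon reports start codon fidelity; reporter light over untreated wells divided by growth signal over untreated wells; some hits fall short of that in this replicate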
CSC inhib = cancer stem cell viability inhibitors, primary screen, luminescence | cancer stem cell-like cells viability | inhibition, % at 7.5 µM | 300,000 tested, 1.1% active | AID 2717, 2010;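 active = mean at 75% or more and at least half the replicates too; inconclusive = mean and replicates disagree; tested in HMLE shEcad cells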;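 note: 0% = median of negative and 100% = median of positive control wells; the first replicate is given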
HIV Env fusion = inhibitors of HIV-1 Env-driven cell-cell fusion, primary screen, HeLa-JRFL effector, CEM21 target cells, luciferase | inhibition, % at 12.3 µM | AID 651610, 2012 | 360,000 tested, 1.1% active;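 active = mean replicate inhibition score of at least 50 and every replicate individually at or above 50; inconclusive = only one of the two criteria met; inactive = mean below 50 and not all replicates reaching 50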;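 note: 0% = plate neutral controls and 100% = maraviroc near 300 nM; one replicate is shown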
MT1-MMP act inh = blockers of MT1-MMP proenzyme processing, primary screen, HT1080 RFP-PRO-GFP cells, GFP/RFP fluorescence | Matrix metalloproteinase-14 (Homo sapiens), P50281 | GFP/RFP ratio change, % at 20 µM | 360,000 tested, 0.061% active | GFP/RFP ratio fluorescence, overnight; percent of plate control window, DMSO zero;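 active = GFP/RFP ratio change of at least 30% with cell ATP level not reduced by more than half and red fluorescence within 50% of control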; note: strong numbers were not always called active
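Material – HT1080 RFP-PRO-GFP cells · Control set – DMSO wells and RFP-L50D-GFP cells · Incubation – overnight cell settling, then overnight compound exposure, 37 °C, 5% CO2 · Compound dosing – single-point 20 µM compound, 1% DMSO · Read-out – GFP/RFP fluorescence ratio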
Rce1 inh = yeast Rce1p protease inhibitors, primary screen, biochemical, fluorescence, cell-free homogeneous | yeast membranes, quenched prenylated peptide cleavage fluorescence | AID 2563, 2010 | 290,000 tested, 0.27% active | calls only;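 active = fall in fluorescence gain of 50% or more versus controls, with final raw signal at or below 3038400; inconclusive = same 50% fall but final raw signal above 3038400; inactive = fall in fluorescence gain under 50%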;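 note: plate controls were neutral control wells for no effect and wells lacking membranes for full effect; tested at 10 µM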
Target sequence (Q03530 whole entry, looked up): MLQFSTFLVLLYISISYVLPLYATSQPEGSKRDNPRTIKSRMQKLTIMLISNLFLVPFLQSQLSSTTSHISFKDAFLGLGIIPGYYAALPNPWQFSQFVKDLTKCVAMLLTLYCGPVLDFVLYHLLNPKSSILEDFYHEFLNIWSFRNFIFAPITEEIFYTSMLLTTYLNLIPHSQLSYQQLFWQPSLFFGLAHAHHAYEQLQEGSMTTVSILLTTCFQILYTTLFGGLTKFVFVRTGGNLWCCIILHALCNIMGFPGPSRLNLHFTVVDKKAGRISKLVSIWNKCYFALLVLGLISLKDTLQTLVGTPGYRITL
eIF4H FP inh = human eIF4H binding inhibitors, primary screen, translation initiation inhibitor project, biochemical, uHTS, fluorescence polarization; Eukaryotic translation initiation factor 4H (Homo sapiens), Q15056; eIF4H fluorescence polarization binding assay; inhibition, % at 35 µM; 290,000 tested, 0.94% active;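 active = 50% or more with normal probe brightness, or confirmed in later tests; inconclusive = above 50% with abnormal brightness, or retests that disagree; inactive = below 50% or failed in later tests; about a fifth of its hits are not listed in these tables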;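 note: calls also rest on retests at 20 µM and on dose response follow-up; 0% = protein and probe with vehicle and 100% = probe without protein; strong numbers were not always called active; many hits fall short of the cut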
PABP polyA inh = PABP poly(A) RNA binding inhibitors, primary screen, biochemical, fluorescence polarization, uHTS; Polyadenylate-binding protein 1 (Homo sapiens), P11940; inhibition, % at 35 µM; 290,000 tested, 1% active;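 active = 50% or more with normal probe brightness, or confirmed in later tests; inconclusive = above 50% with abnormal brightness, or retests that disagree; inactive = below 50% or failed in later tests; about a fifth of its hits are not listed in these tables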;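 note: calls also rest on retests at 20 µM and on dose response follow-up; controls were probe without protein and protein plus probe with vehicle; some compounds called inactive have numbers as strong as hits; many hits fall short of the cut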
Target sequence (P11940 whole entry, looked up): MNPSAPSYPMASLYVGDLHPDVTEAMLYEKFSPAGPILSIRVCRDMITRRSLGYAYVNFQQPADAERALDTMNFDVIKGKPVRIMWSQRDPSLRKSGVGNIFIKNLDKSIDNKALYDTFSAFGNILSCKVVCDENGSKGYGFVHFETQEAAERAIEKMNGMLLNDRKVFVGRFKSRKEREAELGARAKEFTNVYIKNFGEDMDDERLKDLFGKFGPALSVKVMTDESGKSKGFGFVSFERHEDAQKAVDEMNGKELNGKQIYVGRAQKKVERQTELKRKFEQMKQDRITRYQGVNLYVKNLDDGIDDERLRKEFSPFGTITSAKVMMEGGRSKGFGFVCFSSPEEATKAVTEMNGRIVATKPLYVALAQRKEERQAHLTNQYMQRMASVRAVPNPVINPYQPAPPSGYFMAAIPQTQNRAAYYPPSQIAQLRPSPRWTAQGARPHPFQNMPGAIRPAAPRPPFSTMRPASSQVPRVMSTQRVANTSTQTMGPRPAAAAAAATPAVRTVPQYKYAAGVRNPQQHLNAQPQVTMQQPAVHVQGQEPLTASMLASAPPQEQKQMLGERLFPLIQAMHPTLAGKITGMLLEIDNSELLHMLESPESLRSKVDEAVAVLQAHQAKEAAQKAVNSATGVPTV
eIF4H FP inh retest = further read-out of eIF4H FP inh, marked with its call; inhibition, %; compound at 20 µM; confirmation average;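 mean of two retest wells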
PABP polyA inh retest = second read-out of PABP polyA inh, no call of its own (marks repeat the call); inhibition, %; compound at 20 µM; confirmation repeats;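 mean of two retest wells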
MT1-MMP act inh RFP = recorded beside MT1-MMP act inh, whose call it bears; RFP signal change, %; measured here: RFP expression control read;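 0 = vehicle wells; hits needed this value within 50% of zero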
Active calls of the source: *; i = inactive; ? = inconclusive; · = no result given.

SMILES	Yeast UUG start	CSC inhib	HIV Env fusion	MT1-MMP act inh	MT1-MMP act inh RFP	Rce1 inh	eIF4H FP inh	PABP polyA inh	others
CCOC(=O)C1CCN(C(=O)c2ccc(SC)cc2OC)CC1	-4.8	·	-7.8	0.7	1.3	i	-3.0	7.3
Cc1ccc[n+](CC(=O)Nc2cccc([N+](=O)[O-])c2)c1	·	-13.6	-3.5	2.3	1.5	i	-11.9	-13.1
Cc1cccc2sc(N(CCCN(C)C)C(=O)c3ccc(C(=O)c4ccccc4)cc3)nc12	14.5	3.0	7.7	3.2	4.6	i	3.3	2.7
Cc1nn(-c2ncc(C(F)(F)F)cc2Cl)c(=O)n1-c1cccc(Cl)c1	-9.0	8.9	-36.2	-4.1	-1.6	i	-9.1	-7.9
CCN1C(=O)C(CC(=O)Nc2ccccc2)N(Cc2ccccn2)C1=S (stereo unspecified)	·	-3.1	12.1	-0.9	3.3	i	-8.5	5.3
Cc1cc(OC(=O)N2CCOCC2)cc(C)c1Cl	-6.6	-9.8	-27.8	-4.4	0.1	i	6.2	12.3
O=C(N/N=C/c1cccc(OC(=O)c2ccco2)c1)c1ccc(F)cc1	-23.0	-1.2	·	13.4	5.1	i	-0.5	-11.9
COc1ccc(/C=N/n2c(C)cc(C)c(C(N)=O)c2=O)cc1	-6.3	-5.0	·	3.3	3.0	i	-14.8	9.1
CCC(=O)NCc1cc(-c2nn(C)c(=O)c3ccccc23)ccc1C	-13.2	-4.9	-50.7	4.8	3.4	i	-8.9	3.2
CCOC(=O)[C@@H]1[C@H]2COc3ccccc3[C@@H]2N2C(=O)N(c3ccc(OC)cc3)C(=O)[C@@]12C	-5.8	-19.8	-28.2	0.1	2.7	i	-5.8	-3.9
CCC(CC)NCc1ccc2c(c1)c1ccccc1n2CC	·	9.4	-3.4	0.9	-1.6	i	15.1	9.2
O=C(NCCC(=O)N1CCN(c2ccccn2)CC1)c1ccc(Br)cc1	-0.9	-6.9	-32.7	0.4	0.2	i	·	·
CSCCC(NC(=O)CCNC(=O)c1ccccc1Cl)c1nc2ccccc2[nH]1 (stereo unspecified)	-9.0	·	-1.0	-1.0	-2.1	·	·	·
CCN(C[C@H]1N[C@@](C)(C(=O)OC)[C@H]2C(=O)N(Cc3ccccc3)C(=O)[C@@H]12)S(=O)(=O)c1ccc(C)cc1	1.7	·	69.2*	0.2	1.6	·	·	·
Cc1nc2ncnn2c(C)c1CCC(=O)NCc1ccccc1	-18.9	2.0	-6.3	7.2	10.4	i	-8.0	1.1
CCCOc1ccc(C2NC(=O)NC(c3ccccc3)=C2C(C)=O)cc1OCC (stereo unspecified)	-3.9	-15.5	-24.6	0.3	3.9	·	-0.8	-2.4
COc1ccc(Nc2ncnc3ccc(C)cc23)cc1	-11.6	-0.2	34.2	-9.0	-11.4	i	-1.9	-7.2
CC(C)(C)c1ccc(C(=O)NCCC(=O)NCc2ccco2)cc1	-7.9	-12.7	-49.6	1.9	1.6	i	-7.0	-2.6
NC1=NC(=O)C(Cc2cccc(Cl)c2)S1 (stereo unspecified)	-19.6	-4.1	-38.4	3.1	4.8	i	-1.2	-7.6
Cc1ccc(C(=O)OCC(=O)NCCC2=CCCCC2)s1	-16.1	15.3	8.4	-1.4	2.9	i	1.3	-36.9
CCCCC(=O)NCc1ccccc1Cl	·	-5.1	-1.3	2.8	1.6	i	-2.0	13.0
Cc1cccc(-[n+]2c(-c3cccc(Br)c3)[nH]c3nc4ccccc4nc32)c1	-16.1	3.3	-1.7	-10.8	-11.4	i	-1.9	12.5
Nc1ncnc2c1ncn2[C@@H]1O[C@H](C(=O)Nc2cc(C(F)(F)F)cc(C(F)(F)F)c2)[C@@H](O)[C@H]1O	-2.4	·	16.1	1.6	-4.3	·	·	·
CC(=O)Nc1ccc(N/C(C)=C/C(=O)c2cccnc2)cc1	·	3.8	13.4	4.3	4.7	i	6.6	-0.1
CSCC[C@H](NC(=O)NCc1ccc(F)cc1)C(=O)O	-6.9	-10.6	·	-1.4	5.1	i	-5.7	16.8
COc1ccc(C(=O)N/C(=C\c2cn(S(=O)(=O)N(C)C)c3ccccc23)C(=O)NCCCn2ccnc2)cc1	-1.4	0.4	20.0	4.3	4.0	i	·	·
Cc1ccc(S(=O)(=O)N2CCN(c3nc(C(C)C)c4c(c3C#N)CC(C)(C)OC4)CC2)cc1	-9.6	27.5	0.9	-18.2	-13.0	i	-2.5	-7.4
O=C(NCc1ccc(F)cc1)c1c2c(nc3ccccc13)CCC2	·	-7.2	-59.0	1.1	2.1	i	71.1*	-8.1	eIF4H FP inh retest=73.9*;PABP polyA inh retest=30.3
C=CCN(c1ccccc1)S(=O)(=O)c1ccc(Cl)c(C(=O)OCC(=O)c2[nH]c(C)c(C(C)=O)c2C)c1	-12.7	-5.5	-20.8	-23.8	-20.0	i	-1.7	-5.7
COC(=O)CSc1nnc(CNC(=O)c2ccccc2F)n1-c1ccc(F)cc1	·	-7.6	5.3	1.7	0.7	i	-4.8	8.5
O=Nc1c(O)[nH]c2ccc(Cl)c(Cl)c12	6.3	·	16.0	-8.9	-1.2	·	·	·
Cc1ccc(C(=O)c2ccc(O)cc2)cc1C	0.3	-7.3	-24.3	-1.9	0.1	·	-3.0	-3.0
O=C(O)CSc1ncnc2sc3c(c12)CCCC3	-9.0	-10.4	20.5	-1.1	-0.2	i	0.9	12.8
Cc1ccc(S(=O)(=O)N2CCN(C(=O)C3CCCCC3)CC2)cc1	2.5	-9.6	·	-3.4	-2.5	i	-7.2	4.7
O=C(c1nc2ccc(Cl)cn2c1CN1CCC(O)CC1)N1CCc2ccccc2C1	-14.8	-7.4	·	-4.3	1.4	i	0.5	12.4
COc1ccc(NC(=O)CSCC(=O)N(C)Cc2cccc(OC)c2OC)cc1	3.2	-10.9	4.8	2.5	3.1	i	·	·
COc1cccc(-c2ccc(C#N)c(=O)[nH]2)c1	·	2.8	-69.7	1.9	2.5	i	5.2	1.2
CC(=O)c1cccc(NC(=O)C(C)OC(=O)c2ccc(-n3cnnn3)cc2)c1 (stereo unspecified)	-8.0	·	-1.8	8.2	-6.1	·	·	·
O=C(CSc1ccc(-c2ccccn2)nn1)N1CCCC1	·	-11.3	3.7	-4.1	1.5	i	-3.6	-7.5
CC(=O)N1CCc2[nH]c3ccc(C)cc3c2C1	-28.0	-15.0	-11.8	-4.4	1.9	·	?	35.4*	PABP polyA inh retest=80.2*
Cc1nnc(C)c2c(C)n(C(C)c3ccccc3)c(C)c12 (stereo unspecified)	·	-13.6	·	-10.3	-8.2	i	8.8	8.2
CS(=O)(=O)N(CC(=O)N1CCCCC1)c1ccc2c(c1)OCO2	5.6	-4.3	·	1.2	3.5	i	3.9	12.2
Cc1cc(=O)oc2cc(OC(=O)CCN3C(=O)c4ccccc4C3=O)ccc12	·	10.3	·	-0.8	0.9	i	-5.2	-7.9
CCn1c(CCC(=O)O)nc2cc(S(=O)(=O)N(C)C)ccc21	-31.0	-3.2	0.4	3.0	2.7	·	1.7	4.7
CC(=O)Nc1cccc(NS(=O)(=O)c2cccc3nsnc23)c1	0.8	-11.9	·	-0.8	-1.5	·	-0.4	-4.1
CCOc1ccc(C(=O)NCC(=O)OCC(=O)Nc2ccc(C)c(S(=O)(=O)N(C)C)c2)cc1	-1.2	-15.9	-21.0	-2.5	0.7	i	-0.4	-13.2
Cc1ccc(OCC(=O)NNC(=O)C2CCN(c3ncnc4sc(C)c(C)c34)CC2)cc1	·	-4.4	5.5	-5.7	-7.5	·	·	·
COCCN(C(=O)COC(=O)c1ccc(C)o1)c1c(N)n(Cc2ccccc2)c(=O)[nH]c1=O	-13.8	·	5.0	4.4	1.2	i	·	·

Structures shown so far that contain a cyano group:
SMILES	Yeast UUG start	CSC inhib	HIV Env fusion	MT1-MMP act inh	MT1-MMP act inh RFP	Rce1 inh	eIF4H FP inh	PABP polyA inh	others
Cc1ccc(S(=O)(=O)N2CCN(c3nc(C(C)C)c4c(c3C#N)CC(C)(C)OC4)CC2)cc1	-9.6	27.5	0.9	-18.2	-13.0	i	-2.5	-7.4
COc1cccc(-c2ccc(C#N)c(=O)[nH]2)c1	·	2.8	-69.7	1.9	2.5	i	5.2	1.2

Next section
SMILES	Yeast UUG start	CSC inhib	HIV Env fusion	MT1-MMP act inh	MT1-MMP act inh RFP	Rce1 inh	eIF4H FP inh	PABP polyA inh	others
CCOC(=O)c1c(-c2ccc(C)cc2)csc1NC(=O)C1CCCO1 (stereo unspecified)	·	3.4	30.2	3.2	-6.3	i	-0.7	15.8
O=[N+]([O-])c1ccc(/C=N/N2CCCCC2)cc1	-4.2	9.9	-54.4	-2.0	-6.8	i	-10.1	20.8
Cc1cccc(C)c1NC(=O)CN1CCC(Cc2ccccc2)CC1	3.0	·	2.7	6.2	1.8	·	·	·
CNC(=S)N1CCN(C(=O)C2CCCO2)CC1 (stereo unspecified)	·	-7.0	-35.0	4.1	5.1	i	-4.3	-11.1
N#Cc1nc(N)nc(N(c2ccccc2)c2ccccc2)n1	-14.8	37.0	-90.9	6.6	2.1	i	-4.4	-1.9
COc1ccccc1C(=O)C1CCCN(C(=O)c2ccccn2)C1 (stereo unspecified)	·	-12.8	2.6	3.7	4.3	i	4.5	-0.1
CC(CN1CCOCC1)OC(=O)c1ccc(Br)cc1 (stereo unspecified)	12.0	-0.7	·	4.1	3.6	i	1.2	5.3
O=C(OCCN1CCN(C2=NS(=O)(=O)c3ccccc32)CC1)c1cccc(Br)c1	-4.4	-2.1	17.9	2.0	1.7	i	0.8	1.0
CCC1=C2CC[C@H]3C(=O)N(C)C(=O)[C@H]3[C@H]2[C@@]2(Cc3ccccc3)C(=NCCOC)OC(=O)N2C1=O	-7.0	-17.9	4.2	-3.6	3.1	i	-1.8	7.1
Cc1cccc(C(=O)NNC(=O)c2ccco2)c1O	-13.3	4.4	1.7	4.9	8.5	i	-9.1	-4.0
O=C1c2ccccc2-c2c1cccc2C(=O)N(CCO)CCO	3.2	-19.4	·	-0.7	0.5	i	4.6	-7.7
Cc1cccc(NC(=O)C2C(c3ccccc3)C2(Cl)Cl)c1C (stereo unspecified)	-14.8	21.5	-67.4	2.6	-6.4	i	-6.8	-17.3
CCOc1ccc(Nc2nc(N)c([N+](=O)[O-])c(NCc3ccccc3)n2)cc1	-6.0	2.2	-9.2	6.3	2.7	i	-12.1	5.1
COc1cccc(CN(C)C(=O)C23CC4CC(CC(NC(C)=O)(C4)C2)C3)c1OC	-9.6	-4.5	-8.9	-0.6	0.0	i	6.7	3.3
CC(C)Oc1ccc(C(=O)/C(=C\c2cccs2)c2nc3ccccc3o2)cc1	·	34.6	-12.6	-6.6	-4.4	·	10.4	3.8
CCOC(=O)c1ccc(N(CC(=O)NC2CCCCC2)C(=O)CNC(=O)c2ccco2)cc1	-9.3	-9.0	-7.8	-2.2	2.2	i	73.6	-0.4	eIF4H FP inh retest=-8.6;PABP polyA inh retest=4.6

Source: PubChem BioAssay (several laboratories)
